Compound activity from PubChem.
CBX7 AlphaScr – CBX7 inhibition, primary AlphaScreen; actives 1.1% (n = 66,000); normalised signal (fraction of DMSO) (concentration not given with the values); O95931; AlphaScreen His6-CBX7 / biotin-H3K27me3 peptide binding; active compounds read low; in the data active = normalised signal below about 0.5;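 note: 100 nL library stock added to about 20 µL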
Target sequence (O95931 whole entry, looked up): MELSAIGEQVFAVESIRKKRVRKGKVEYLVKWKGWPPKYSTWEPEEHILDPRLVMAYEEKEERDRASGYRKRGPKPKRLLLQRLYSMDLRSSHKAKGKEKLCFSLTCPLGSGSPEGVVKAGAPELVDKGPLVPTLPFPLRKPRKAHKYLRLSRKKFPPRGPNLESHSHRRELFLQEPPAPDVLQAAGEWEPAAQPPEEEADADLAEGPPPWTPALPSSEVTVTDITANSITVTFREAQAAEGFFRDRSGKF
CBX7 AlphaScr z-score – second read-out of CBX7 AlphaScr, no call of its own (marks repeat the call); z-score; measured here: z-score of CBX7 signal; some inactives read as strong as hits; reference of the scale not given here;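 same signal on another scale; lower means less binding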
Numbers without * were called inactive; & = joins results of further samples.

The opening 2 records (preview)
SMILES	CBX7 AlphaScr	CBX7 AlphaScr z-score
COc1ccc(Cl)cc1C(=O)NCCc1cc2c(OC)ccc(OC)c2[nH]c1=O	0.997	-0.121
CCOc1ccc(-c2cc(C(=O)N3CCN(C/C=C/c4ccccc4)CC3)c3ccccc3n2)cc1	0.911	-0.871

Results, previewed entries included:
SMILES	CBX7 AlphaScr	CBX7 AlphaScr z-score
COc1ccc(Cl)cc1C(=O)NCCc1cc2c(OC)ccc(OC)c2[nH]c1=O	0.997	-0.121
CCOc1ccc(-c2cc(C(=O)N3CCN(C/C=C/c4ccccc4)CC3)c3ccccc3n2)cc1	0.911	-0.871
COc1ccc(-n2c(Cc3cc(=O)[nH]c(=O)[nH]3)nnc2SCC(=O)c2ccc(Cl)cc2)cc1	1.03	0.464
Cc1cc(N2CCN(c3cccc(C)c3C)CC2)n2nc(C)nc2n1	0.953	-1.57
Cc1ccc(NC(=O)C2CCCN(S(=O)(=O)c3c(C)noc3C)C2)c(Br)c1 (stereo not given)	1.06	1.01
Cc1ccc(Cn2nnc3c(=O)n(CC(=O)Nc4cccc(C(F)(F)F)c4)cnc32)cc1	0.967	-0.543
COc1ccccc1-c1cc(C(=O)Nc2ccc(C)c(C)c2)no1	1.08	2.13
O=C(c1ccc(CSc2nc3ccncc3[nH]2)cc1)N1CCC(Cc2ccccc2)CC1	0.915	-3.42
Cc1cccc(CCNC(=O)c2nnc(Cc3ccc(Cl)cc3)o2)c1	1.08	2.95
COc1ccc(CNc2ccc3c(c2)ncn3C2CCCCC2)cc1OC	0.783	-1.4
Cc1cccc(Cc2c(C)nc3nc(SCC(=O)NCc4ccccc4)nn3c2C)c1	1.14	1.4
O=C(NCCN1CCOCC1)c1ccc2c(c1)N(Cc1ccc(F)cc1)C(=O)CS2	0.99	-0.0985
COc1ccc(C2(C(=O)Nc3ccccc3Cl)CCCC2)cc1OC	1.01	0.154
O=C(Nc1ccc2c(c1)OCO2)c1cc2c(s1)-c1ccccc1OC2	0.962	-1.82
Cc1ccc(C(C)C)c(OCC(=O)Nc2ccc(O)c(-c3nc4ccccc4o3)c2)c1	1.03	0.204
COC(=O)C1CC(=O)N(c2ccc(OC)cc2)C1 (stereo not given)	0.899	-1.59
Cc1ccc(NC(=O)c2c(-c3ccccc3Cl)noc2C)cc1F	1.1	1.99
COc1ccc(Nc2cc(C(=O)NCCCN3CCC(C)CC3)c3ccccc3n2)c(OC)c1	0.718	-4.32
CC1CC(C)CN(C(=O)Cn2nc(Cc3cccnc3)c3ccccc3c2=O)C1 (stereo not given)	1.18	1.88
CCN(C(=O)Cn1nc(Cc2ccncc2)c2ccccc2c1=O)c1ccccc1	1.12	2.43
C=CCc1ccccc1OCc1nnc(NC(=O)Nc2cccc(Cl)c2)s1	1.08	0.273
Cc1ccc(C(=O)Nc2c3c(nn2-c2ccc(F)cc2)CSC3)cc1	1.05	0.868
COc1ccc(C)cc1NC(=O)c1oc2ccc(S(=O)(=O)N3CCOCC3)cc2c1C	0.773	-3.13
CCN(CC)S(=O)(=O)c1ccc2c(c1)N(CC(=O)Nc1c(C)cccc1C)C(=O)CO2	1.03	1.6
Cc1cc(=O)n2nc(N3CCC(C(=O)NCc4ccc(Cl)cc4)CC3)sc2n1	1.01	0.664
CCOC(=O)N1CCN(c2c(N3CCC(N4CCCCC4)CC3)c(=O)c2=O)CC1	1.07	2.06
CCN(CC)CCNC(=O)Cn1cnc2sc(C)c(S(=O)(=O)N3CCOCC3)c2c1=O	0.935	-0.604
CN(CCC#N)C(=O)COc1ccc2c(c1)C(=O)CC(C)(C)O2	0.952	-0.375
Cc1cccc(-n2c(/C=C/c3c(C)n(C)c4ccccc34)nc3ccccc3c2=O)c1	0.899	-1.09
CC1(C)CC(=O)C2=C(C1)N(c1ccc(F)cc1)C(=O)CC2c1cccnc1 (stereo not given)	1.01	0.109
CCc1cccc(C)c1Nc1c(-c2ccsc2)nc2cnccn12	1.27	11.1
NC(=O)CSc1oc(-c2ccc(F)cc2)nc1S(=O)(=O)c1ccc(Br)cc1	1.07	0.541
O=C(Nc1ccccc1-c1nc2ccccc2s1)c1ccc(S(=O)(=O)N2CCCCC2)cc1	1	0.131
CCOc1ccc(-n2c(C)nc3cc(C(=O)NCC(OC)OC)ccc32)cc1	0.835	-1.97
CCCNC(=O)CC1Oc2ccc(Cl)cc2NC1=O (stereo not given)	1.02	0.828
CC(C)CCn1c(C2CC(=O)N(c3ccccc3)C2)nc2ccccc21 (stereo not given)	0.87	-1.4
Cn1c(/C=C/c2cccnc2)nc2ccccc2c1=O	1	0.0504
O=S(=O)(Nc1cccc(-c2cn3ccccc3n2)c1)c1ccccc1	1.06	1.63
CCCNC(=O)Cn1cnc2sc(C(=O)Nc3ccc(OCC)cc3)c(C)c2c1=O	1.02	0.67
COc1ccc(Cl)cc1NC(=O)c1cnc2scc(C)n2c1=O	1.05	0.325
Cc1ccc(C)n1-c1c(C(=O)O)sc2c1CCCC2	0.931	-0.787
O=C(CSc1nnc(Cc2cc(=O)[nH]c(=O)[nH]2)n1-c1ccc(F)cc1)Nc1ccccc1	1.1	2.52
CCc1sc2ncnc(N(C)C)c2c1-c1ccccc1	1.01	0.164
CCOC(=O)c1c(-c2ccccc2)csc1NC(=O)C1COc2ccccc2O1 (stereo not given)	1.12	3.02
COc1ccc(Cl)cc1Nc1nc(-c2cccc(C)c2)nc2ccccc12	1.2	4.5
Cc1ccc(Nc2cc(C)c3ccccc3n2)cc1Cl	1.28&1.18	3.17&7.25
O=C(Cn1c2c(c(-c3ccccc3Cl)cc1=O)CCC2)NCCc1ccccc1	0.639	-2.27
O=C(CCCn1c(=O)[nH]c2ccccc2c1=O)NCc1ccccn1	1.13	0.352
Cc1ccc(-c2cc(C(=O)N3CCC(Cc4ccccc4)CC3)c3ccccc3n2)s1	1.08	0.565
CCOc1ccc(NC(=O)c2cn(-c3ccc(C)c(C)c3)c(=O)c3ccccc23)cc1	1.01	0.133
Cc1ccccc1NC(=O)c1cnn(-c2ccccc2)c1NC(=O)c1ccccc1	1.02	0.831
CC1CCCN(CCCNC(=O)CCN2C(=O)COc3ccccc32)C1 (stereo not given)	1.01	0.282
O=C(NCc1ccc2c(c1)OCO2)c1cc(Sc2ccc(F)cc2)nc2ccccc12	0.935	-0.0648
CC(NC(=O)c1noc2c1CCCC2)c1ccccc1 (stereo not given)	1.05	0.253
CCOC(=O)CCC(=O)Nc1ccc(S(=O)(=O)Nc2cc(C)on2)cc1	0.986	-0.341
O=c1c2ccccc2nc(/C=C/c2cc(Br)ccc2O)n1CCCO	0.637	-1.28
COc1cccc2cc(-c3nnc(Nc4ccc(C)cc4)s3)c(=O)oc12	1.12	2.1
Cc1nn(CC(=O)NCCO)c(=O)c2ccccc12	0.955	-1.08
CCCCOc1ccc(S(=O)(=O)Nc2cccc(-c3cn4cccc(C)c4n3)c2)cc1	1.03	0.548
COc1ccc(CC(=O)Nc2c3c(nn2-c2ccc(C)cc2)CSC3)cc1OC	0.977	-1.14

Later entries.
SMILES	CBX7 AlphaScr	CBX7 AlphaScr z-score
CCCOc1ccc(-c2cc(C(=O)O)c3cc(Cl)ccc3n2)cc1	0.828	-0.234
Cc1ccccc1NC1c2ccccc2C(=O)N1c1cccnc1 (stereo not given)	1.01	0.129
O=C(CSc1nnc(-c2ccco2)o1)c1cccc2ccccc12	1.04	0.506
COC(=O)c1c[nH]n2c(NC3CCCCCC3)c(-c3cccc(OC)c3)nc12	0.495*	-9.96*
Cc1ccc2nc(-c3ccc(N4CCOCC4)cc3)c(Nc3ccc4c(c3)OCCO4)n2c1	0.962	-0.616
CCN(C(=O)Cc1c(C(=O)O)[nH]c2ccc(Cl)cc12)c1cccc(C)c1	1.08	2.42
COC(CNC(=O)c1c[nH]c2ccc(S(=O)(=O)N3CCC(C)CC3)cc2c1=O)OC	1.16	2.39
Cc1ccc2oc(-c3cc(N)ccc3O)nc2c1	0.784	-3.7
Fc1ccccc1Nc1nc(-c2ccc(Br)cc2)cs1	0.808&0.969	-3.04&-0.0425
NC(=O)c1ccccc1NC(=O)CSc1ccccn1	1.05	0.606
O=C(Nc1ccc(OC(F)(F)F)cc1)c1cc(-c2ccc(Cl)cc2)on1	1.03	1.46
CCN1C(=O)c2ccccc2S(=O)(=O)c2ccc(C(=O)NCCc3ccc(C)cc3)cc21	1	0.127

As entered above.
CBX7 AlphaScr z-score with CCN(C(=O)Cn1nc(Cc2ccncc2)c2ccccc2c1=O)c1ccccc1 → 2.43
CBX7 AlphaScr with CC1(C)CC(=O)C2=C(C1)N(c1ccc(F)cc1)C(=O)CC2c1cccnc1 (stereo not given) → 1.01
CBX7 AlphaScr with CCCOc1ccc(-c2cc(C(=O)O)c3cc(Cl)ccc3n2)cc1 → 0.828
CBX7 AlphaScr z-score with O=c1c2ccccc2nc(/C=C/c2cc(Br)ccc2O)n1CCCO → -1.28
CBX7 AlphaScr with Cc1cccc(Cc2c(C)nc3nc(SCC(=O)NCc4ccccc4)nn3c2C)c1 → 1.14

(list continues)
SMILES	CBX7 AlphaScr	CBX7 AlphaScr z-score
CCCCC(=O)NCCc1cc2cc(C)c(C)cc2[nH]c1=O	1.2	1.31
CN(Cc1ccccc1)C(=O)c1ccc(CNc2c(NC3CCCC3)c(=O)c2=O)cc1	0.974	-0.225
CCOC(=O)c1ccc(NC(=O)c2cc3sccc3n2Cc2ccc(Cl)cc2)cc1	1.05	1.3
CC(=O)N1CCC2(CC1)CC(=O)c1cc(OCC(=O)NCc3ccccn3)ccc1O2	0.949	-1.01
CCc1cccc(NC(=O)c2cc(-c3cccc(OC)c3)nc3ccccc23)c1	1.08	3.22
Cc1c(C(=O)NCCCN2CCCC2)oc2ccc(S(=O)(=O)N3CC(C)CC(C)C3)cc12 (stereo not given)	2.61	16.2
O=C(NCCc1ccccc1)C1CC(c2ccc(F)cc2)=NO1 (stereo not given)	1.07	3.29
COC(=O)c1c[nH]n2c(NC3CCCC3)c(-c3cccc(OC)c3)nc12	0.383*	-0.694*
Cc1cccc(OCC(=O)Nc2c(C(=O)c3ccc(F)cc3)oc3ccccc23)c1C	0.859	-0.495
O=C(Nc1ccc2oc(-c3ccncc3)nc2c1)c1cc2ccccn2n1	0.938	-1.58
COc1ccc(Cn2c(=O)c3cccnc3n(CC(=O)Nc3ccccc3OC)c2=O)cc1	0.939	-1.1
O=C(C1CCC1)N1CCc2cc(S(=O)(=O)NCc3ccc(F)cc3)ccc21	0.969	-0.861

Taken from the listing (5 entries):
SMILES	CBX7 AlphaScr	CBX7 AlphaScr z-score
Cc1ccccc1NC(=O)c1cnn(-c2ccccc2)c1NC(=O)c1ccccc1	1.02	0.831
CC1CCCN(CCCNC(=O)CCN2C(=O)COc3ccccc32)C1 (stereo not given)	1.01	0.282
O=C(NCc1ccc2c(c1)OCO2)c1cc(Sc2ccc(F)cc2)nc2ccccc12	0.935	-0.0648
CC(NC(=O)c1noc2c1CCCC2)c1ccccc1 (stereo not given)	1.05	0.253
CCOC(=O)CCC(=O)Nc1ccc(S(=O)(=O)Nc2cc(C)on2)cc1	0.986	-0.341

The listing continues.
SMILES	CBX7 AlphaScr	CBX7 AlphaScr z-score
CCOc1ccc(CCNC(=O)CCc2nc(-c3ccc(OC)cc3)no2)cc1OCC	1.1	2.15
CCc1ccc(NC(=O)N(CCN(C)C)C2CCN(C(C)C)CC2)cc1	1.2	4
CN(C(=O)Cn1nc(Cc2cccnc2)c2ccccc2c1=O)c1ccccc1F	1.03	1.13
CC(=O)N1CCc2cc(S(=O)(=O)NCC(=O)NCc3ccc(Cl)cc3)ccc21	0.952	-0.926
Fc1ccc(-c2nnc3ccc(N4CCC(c5ccccc5)C4)nn23)cc1 (stereo not given)	0.88	-2.71
CCn1cc(Cl)c(C(=O)Nc2nc3ccccc3n2CCN2CCCCC2)n1	0.922	-0.106
Cc1ccc(-n2ncc3c(NCc4cccnc4)ncnc32)c(C)c1	1	-0.00347
CCOc1ccc(CCN2C(=O)CC(Cc3ccc(C)cc3)C2=O)cc1OCC (stereo not given)	1.03	0.982
COc1ccccc1Nc1nc(-c2ccc(Br)cc2)cs1	0.953&0.904	-0.747&-2.04
C#CCOc1ccc2c(c1)c(C(=O)OCC)c(C)n2-c1ccccc1	1.04	0.126
Cc1cc(N2CCN(C)CC2)nc2ccc(NC(=O)CCC(=O)NC3CC3)cc12	1.01	0.019
COc1cccc2c(Nc3ccccc3)cc(C)nc12	0.928	-0.252
CCOC(=O)N1CCN(c2c(NCCN3CCN(c4ccccc4F)CC3)c(=O)c2=O)CC1	1.22	3.89
Cc1ccc(-c2noc(CCC(=O)N3CCN(c4ccccc4)CC3)n2)cc1	1.12	1.13
Cc1ccccc1CN1CCN(CC(=O)NC2CCCCCC2)C1=O	1.03	0.494
CCCCNC(=O)c1cc(=O)[nH]c2ccc(S(=O)(=O)N3CCCC3)cc12	1.05	0.573
CCOc1ccc(OCC)c(NC(=O)c2nc(-c3ccc(C)cc3)oc2C)c1	0.677	-4.45
CC(=O)N(c1ccc2oc3c(c2c1)CCCC3)S(=O)(=O)c1c(C)cc(C)cc1C	0.988	-0.395
COc1ccc(CNC(=O)c2cc(-c3ccco3)on2)cc1	0.993	-0.175
O=C(Nc1nc2ccccc2n1CCOc1ccccc1)c1ccccc1	1.06	0.637
O=C1CC(NCCCN2CCN(Cc3ccccc3)CC2)C(=O)N1c1ccc(F)cc1 (stereo not given)	1.5	4.78
O=C(CCCCn1c(=O)[nH]c2ccsc2c1=O)NCCc1c[nH]c2ccccc12	0.97	-0.664
NC(=O)c1cnn2c1NC(c1cccs1)CC2C(F)(F)F (stereo not given)	1.12	1.45
CCc1ccc(CN(C(=O)c2ccccc2OC)C2CCS(=O)(=O)C2)cc1 (stereo not given)	0.877	-0.123
O=C(C1CCC1)N1CCc2cc(S(=O)(=O)Nc3ccc4c(c3)OCO4)ccc21	0.895	-2.92
Cc1c(C(=O)Nc2ccc(C(F)(F)F)cc2)sc2ncn(CC(=O)N3CCCCC3)c(=O)c12	1.1	0.673
COc1ccc(OC)c(CCNC(=O)CS(=O)(=O)Cc2nc(-c3cccc(Cl)c3)oc2C)c1	0.842	-7.61
CC(=O)Nc1cc(-c2nn(CC(=O)N3CCCCC3)c(=O)c3ccccc23)ccc1N1CCOCC1	1.05	0.2
Cc1cc(NCCc2ccc(Cl)cc2)n2nc(C)nc2n1	1.03	0.692
CCC(C)NC(=O)c1ccc2c(c1)N(Cc1ccccc1)C(=O)CS2 (stereo not given)	0.944	-0.737

Some of the compounds tested. The share of hits here may be higher or lower than overall.
